High-throughput results as filed in PubChem BioAssay.
NPYLR7 ag: activates Aedes aegypti NPYLR7 receptor | HEK293T NPYLR7/Galpha15, GCaMP6s calcium fluorescence | activation, % at 10 µM | 270,000 tested, 0.15% active; in the data active = activation above about 40%;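 also: 0% = vehicle and 100% = reference agonist at the receptor; some compounds past the cut are filed as inactive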
NPYLR7 ag max-min: second read-out of NPYLR7 ag, no call of its own (marks repeat the call); activation, %; measured here: Max-Min RFU normalised activation; some inactives read as strong as hits;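 span of the calcium signal over five minutes; 0% = vehicle and 100% = native peptide agonist; compound fluorescence can raise it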
* = called active by the depositor; & = joins results of further samples. Not all compounds are listed; rates above refer to the full screens.

Values in the order: NPYLR7 ag | NPYLR7 ag max-min
1	CC(C)(C)C1CCN(c2ncnc(Oc3ccc(F)cc3)c2N)CC1
    23 | 14
2	CCC(C)N(Cc1csc(COc2ccccc2OC)n1)C(=O)Nc1ccc(C)cc1 (stereo not drawn)
    -7 | 4
3	CC(=O)Nc1cc(C(=O)N2CCC(c3ccc(F)cc3)C2)c2c(c1)nc(C)n2Cc1ccccc1 (stereo not drawn)
    16 | 5
4	Cc1nc2ccccc2n1C(C(=O)O)C(C)C (stereo not drawn)
    1 | -1
5	C=CCN1C(=S)N(c2ccc(Br)cc2)C2CS(=O)(=O)CC21 (stereo not drawn)
    4 | 0
6	C=CCn1c(SCc2ccc(C(=O)Nc3ccc(OC)cc3)cc2)nnc1-c1ccc(C)cc1
    6 | -2
7	O=C(c1cccnc1N1CCN(Cc2ccoc2)CC1)N1CCCCC1
    13 | -3
8	CC(C)Cc1nc(N2CCCN(C(=O)NC(C)(C)C)CC2)c2c(-c3cccc(C(F)(F)F)c3)noc2n1
    4 | 23
9	Cc1cccc(C)c1NC(=O)c1ccccc1NC(=O)C(C)n1ccnc1C (stereo not drawn)
    4 | -1
10	Cc1nccc(-c2cccc(NC(=O)c3cccnc3Nc3cccc(Cl)c3)c2)n1
    -16 | -21
11	O=C(O)Cn1ccc2c(cnc3ccnn32)c1=O
    3 | 9
12	N#Cc1ccccc1OCC(=O)N1CCN(C(=O)c2cccs2)CC1
    -4 | -6
13	Cc1ccc2c(c1)NC(=O)c1cc(NS(=O)(=O)CC(C)C)ccc1O2
    0 | -2
14	CC(C)CCNC(=O)Cc1csc(SCC(=O)c2cccs2)n1
    12 | 10
15	Clc1ccc(-n2cnnc2C2CCNCC2)cc1
    7 | 5
16	Cc1cc(NC(=O)CNc2ccccc2Br)no1
    0 | 0
17	COc1cc2c(cc1OC)C(CNC(=O)NC(C)(C)C)N(Cc1ccc(F)cc1)CC2 (stereo not drawn)
    -3 | 7
18	CCc1noc(C)c1C(=O)N1CCC(Cc2cccc(C(=O)O)c2)C1 (stereo not drawn)
    6 | 4
19	Cc1onc(-c2ccccc2Cl)c1C(=O)NC1CCCCCCCCCCC1
    -2 | -5
20	O=C(Nc1cccc(O)c1)c1cnn2c1NC(c1ccco1)CC2C(F)(F)F (stereo not drawn)
    2 | -6
21	CC(C)OC(=O)C(C#N)=Cc1ccc([N+](=O)[O-])o1
    5 | 2
22	O=[N+]([O-])c1ccc2[nH]c(O)c(N=Nc3ccccc3[N+](=O)[O-])c2c1
    7 | 5
23	CCCN(C)c1cc(C)nc(SCc2ccc(C(=O)NC3CC3)o2)n1
    -11 | 0
24	Cc1ccc(OCCNC(=O)N(C)CC(=O)Nc2ccccc2Cl)c(C)c1
    -2 | -2
25	Cc1ccccc1CN1C(=O)C2(SC(C)(C)CN2C(=O)c2ccc(Cl)cc2)c2ccccc21 (stereo not drawn)
    -2 | 0
26	COc1ccc(C(=O)N2C[C@H](O)[C@@H](N3CCCN(C(C)=O)CC3)C2)cc1
    2 | 0
27	CCCCN(CC(=O)N1CCc2sccc2C1c1ccc(Cl)cc1)C(=O)CCC(=O)OCC (stereo not drawn)
    9 | 21
28	CCOC(=O)CCCNC(=O)N1CCN(c2ncccc2NC(=O)c2ccc3c(c2)OCO3)CC1
    35 | 41
29	Cc1ccc(CN2CCN(c3cncc(C(N)=O)n3)CC2)c2cccnc12
    -8 | -11
30	COc1cc(OC)cc(-n2c(-c3nccc4ccccc34)n[nH]c2=S)c1
    -6 | -11
31	Cc1ccsc1CN(Cc1ccc2c(c1)OCO2)C(=O)CN(C(=O)C1CCCC1)C1CC1
    -3 | 5
32	O=c1[nH]ncc(N/N=C2\CCOc3c(Br)cccc32)c1Cl
    16 | 15
33	CC1(C)OC(=O)N(c2ccccc2)C12C=Cc1cc(Br)cc([N+](=O)[O-])c1O2 (stereo not drawn)
    0 | 19
34	COc1cccc(OC)c1OCc1nc(CN(C(=O)Cc2ccccc2)C2CC2)cs1
    -8 | 3
35	O=C(c1cc2ccccc2oc1=O)N1CCCC(Nc2ccc3c(c2)OCCO3)C1 (stereo not drawn)
    3 | 1
36	CC1(C(=O)NS(=O)(=O)c2ccc(Cl)cc2)CCN1C(=O)COc1ccc(Cl)cc1 (stereo not drawn)
    4 | 3
37	CNS(=O)(=O)c1scc(Br)c1Br
    2 | -1
38	COCCN(Cc1c(-c2ccccc2)noc1N1CCCC1)C(=O)c1cccc(C(F)(F)F)c1
    21 | 31
39	S=c1[nH]nc(-c2ccc(Cl)cc2Cl)n1N=Cc1ccncc1
    3 | 3
40	Cc1ccc2cc(CCNC(=O)c3ccccc3C(F)(F)F)c(=O)[nH]c2c1C
    2 | -2
41	Cn1c(=O)c2c(nc(CN3CCN(CCO)CC3)n2CCc2ccccc2)n(C)c1=O
    2 | 5
42	CC1(C(=O)NCc2cccc3ccccc23)CCN1Cc1ccc(OC(F)(F)F)cc1 (stereo not drawn)
    2 | 3
43	Cc1nnc(SCC(=O)NCc2cccc(-c3ccccc3)c2)s1
    -2 | -3
44	COc1cccc(C(=O)NCCn2ncc3c(=O)n(Cc4ccccc4C)cnc32)c1OC
    -6 | -13
45	CC(=O)c1cc(C)ccc1OC(=O)c1ccc(Br)cc1
    7 | -2
46	O=C(Cc1ccccc1)N1CCCC(OCc2cccc(C(F)(F)F)c2)C1 (stereo not drawn)
    -6 | 0
47	CNC(=O)[C@@H]1C[C@H](N)CN1C(=O)C1Cc2ccccc2C1
    1 | -7
48	COc1ccc(C(=O)N(C)Cc2c(C)nn(-c3ccccc3)c2C)cn1
    4 | 3
49	CCOc1cc(/C=C2/SC(N)=NC2=O)ccc1OCc1ccc([N+](=O)[O-])cc1
    7 | 5
50	CN(CCOc1ccc(F)cc1)Cc1nc2cc(Cl)ccc2c(=O)[nH]1
    12 | 4
51	Cc1nnc(-c2cc3ccccc3n2CC(=O)NC(C)(C)C)o1
    -8 | -4
52	O=[N+]([O-])c1cc(S(=O)(=O)N2CCc3nc(-c4ccccc4)nc(N4CCOCC4)c3C2)ccc1Cl
    11 | 22
53	Nc1cccc2oc(C(F)(F)F)nc12
    1 | -2
54	OCC1(Cc2ccccc2)CCCN(C2CCCC2)C1 (stereo not drawn)
    -8 | -13
55	O=C(c1cccc([N+](=O)[O-])c1)N(CCN1CCOCC1)c1nc2c(F)cccc2s1
    13 | 7
56	Cc1nc2nc(N)nn2c(C)c1CC(=O)NCCC(C)c1ccccc1 (stereo not drawn)
    -7 | -8
57	COc1ccc2nc(C)c(C(=O)NC34CC5CC(CC(C5)C3)C4)cc2c1
    11 | 6
58	NCC1CN(Cc2cc(CN3CCCC3)cs2)CCO1 (stereo not drawn)
    5 | 3
59	CCc1nc2ccc(C(=O)N3CCN(C)CC3)cn2c1N(C)CCC(C)C
    -6 | -12
60	O=C(c1cc(-c2ccccc2F)n[nH]1)N1CCC2(CCCN(Cc3ccccc3F)C2)C1 (stereo not drawn)
    -4 | -7

Continued:
Values in the order: NPYLR7 ag | NPYLR7 ag max-min
61	CN(Cc1ccc(C(N)=O)cc1)C(=O)NCCc1cn2c(n1)CCCC2
    5 | 3
62	O=C(CC1(O)C(=O)Nc2ccccc21)c1cc2ccccc2oc1=O (stereo not drawn)
    17 | 13
63	COc1ccc(N2C(=O)CSC2c2cccc(Br)c2)c(OC)c1 (stereo not drawn)
    2 | -3
64	Cc1nc2ccccc2n(C(C)C(=O)Nc2ccccc2Cl)c1=O (stereo not drawn)
    0&-2 | 1&-3
65	Cc1nc(N)sc1N=Nc1ccc(Br)cc1
    4 | 1
66	Cc1nn(C)c2nc(C3CC3)cc(C(=O)NCc3nnc4n3CCCCC4)c12
    10 | 3
67	CC(=O)c1nc(N2C(=O)C3CC=C(C)CC3C2=O)sc1C (stereo not drawn)
    14 | 6
68	CCCCC(=O)N1CCN(c2cc(Cl)nc(SCC(=O)O)n2)CC1C (stereo not drawn)
    11 | 14
69	O=C(CNC(=O)c1ccccc1Br)N=Nc1c(O)[nH]c2ccc([N+](=O)[O-])cc12
    3 | -6
70	CC(C)c1ccccc1OCc1nc(C(=O)NCCN2CCOCC2)cs1
    1 | 1
71	CCN(CC)C(=O)COC(=O)C12CC3CC(CC(Br)(C3)C1)C2
    -3 | -12
72	CCCCCc1ccc(C(=O)NC(Cc2ccccc2)C(=O)Nc2cc(C(C)(C)C)nn2-c2ccccc2C)cc1 (stereo not drawn)
    19 | 31
73	Cc1nc(C)c(-c2ccc(SCc3ccccc3)nn2)s1
    10 | 0
74	C=C1C2(C(=O)Oc3ccc(C(=O)OC)cc3)CCC(C2)C1(C)C (stereo not drawn)
    -1 | -2
75	Cc1nc(N2CCN(c3ccccc3)CC2)nc2c1C(=O)CC(c1ccccc1)C2 (stereo not drawn)
    0 | -1
76	Cc1oc(C)c(C(=O)NC(C)c2ccncc2)c1C (stereo not drawn)
    1 | 1
77	Cc1cc(CC(=O)NC(CC(C)C)c2nnc3n2CCNCC3)on1 (stereo not drawn)
    10 | 8
78	CC(=O)Nc1ccccc1C(=O)C(=O)O
    2 | -2
79	COc1cc(-c2cc(CN(C)S(=O)(=O)c3ccccc3)no2)cc(OC)c1OC
    23 | 17
80	CCn1c(CC2CCN(Cc3c(CO)cnc(C)c3O)CC2)nn(C)c1=O
    14 | 8
81	Cc1cccc(CCCOCCOC(=O)NCCCn2cccn2)n1
    -20 | -23
82	O=C(Cc1ccccc1)NCc1nnc(SCC(=O)Nc2nccs2)n1-c1ccc(F)cc1
    -6 | 1
83	COCCCNC(=O)CN1CCN(C(=O)Nc2ccccc2C)CC1
    2 | -1
84	Cc1cccc(Cn2nccc2NC(=O)C2(C)CC2(Cl)Cl)c1 (stereo not drawn)
    10 | 7
85	COCCCn1c(=S)[nH]c2sc(C)c(C)c2c1=O
    -6 | -9
86	CCc1ccc(N2NC(=O)/C(=C/c3cccn3-c3ccc(S(N)(=O)=O)cc3)C2=O)cc1
    3 | 1
87	CSc1nn(CC(=O)Nc2c(C)cc(C)cc2C)c(N)c1S(=O)(=O)c1ccc(C)cc1
    -15 | -18
88	COc1ccnc(N2Cc3cnc(CC(C)C)nc3C2)n1
    -2 | -1
89	NC(=O)c1cccc(-c2ccc3c(c2)COCC(=O)N3CCN2CCOCC2)c1
    11 | 7

By substructure: the compounds so far with an aryl methoxy group.
Values in the order: NPYLR7 ag | NPYLR7 ag max-min
2	CCC(C)N(Cc1csc(COc2ccccc2OC)n1)C(=O)Nc1ccc(C)cc1 (stereo not drawn)
    -7 | 4
6	C=CCn1c(SCc2ccc(C(=O)Nc3ccc(OC)cc3)cc2)nnc1-c1ccc(C)cc1
    6 | -2
17	COc1cc2c(cc1OC)C(CNC(=O)NC(C)(C)C)N(Cc1ccc(F)cc1)CC2 (stereo not drawn)
    -3 | 7
26	COc1ccc(C(=O)N2C[C@H](O)[C@@H](N3CCCN(C(C)=O)CC3)C2)cc1
    2 | 0
30	COc1cc(OC)cc(-n2c(-c3nccc4ccccc34)n[nH]c2=S)c1
    -6 | -11
34	COc1cccc(OC)c1OCc1nc(CN(C(=O)Cc2ccccc2)C2CC2)cs1
    -8 | 3
44	COc1cccc(C(=O)NCCn2ncc3c(=O)n(Cc4ccccc4C)cnc32)c1OC
    -6 | -13
48	COc1ccc(C(=O)N(C)Cc2c(C)nn(-c3ccccc3)c2C)cn1
    4 | 3
57	COc1ccc2nc(C)c(C(=O)NC34CC5CC(CC(C5)C3)C4)cc2c1
    11 | 6
63	COc1ccc(N2C(=O)CSC2c2cccc(Br)c2)c(OC)c1 (stereo not drawn)
    2 | -3
79	COc1cc(-c2cc(CN(C)S(=O)(=O)c3ccccc3)no2)cc(OC)c1OC
    23 | 17
88	COc1ccnc(N2Cc3cnc(CC(C)C)nc3C2)n1
    -2 | -1
